hNpr1 antagonist = antagonists of human natriuretic peptide receptor Npr1 | hit rate 1.6% among 76,000 | Potency, µM (highest dose often 46.3 µM), inactives show top-dose activity change, negative = inhibition, usual class: inhibitors | P16066 | AID 1347048 | HEK293 hNpr1 GloSensor cGMP, ANP-stimulated luminescence; active = well fitted inhibition curve with a large enough effect; inconclusive = small, poorly fitted or top-dose-only effect; inactive = no such curve, though single readings can be large or run the other way;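 also: nearly all actives have a fitted effect of over 60% in size; nearly all hits also lower the signal before the agonist is added; a reference antagonist and vehicle were the controls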
Target sequence (P16066 whole entry, looked up): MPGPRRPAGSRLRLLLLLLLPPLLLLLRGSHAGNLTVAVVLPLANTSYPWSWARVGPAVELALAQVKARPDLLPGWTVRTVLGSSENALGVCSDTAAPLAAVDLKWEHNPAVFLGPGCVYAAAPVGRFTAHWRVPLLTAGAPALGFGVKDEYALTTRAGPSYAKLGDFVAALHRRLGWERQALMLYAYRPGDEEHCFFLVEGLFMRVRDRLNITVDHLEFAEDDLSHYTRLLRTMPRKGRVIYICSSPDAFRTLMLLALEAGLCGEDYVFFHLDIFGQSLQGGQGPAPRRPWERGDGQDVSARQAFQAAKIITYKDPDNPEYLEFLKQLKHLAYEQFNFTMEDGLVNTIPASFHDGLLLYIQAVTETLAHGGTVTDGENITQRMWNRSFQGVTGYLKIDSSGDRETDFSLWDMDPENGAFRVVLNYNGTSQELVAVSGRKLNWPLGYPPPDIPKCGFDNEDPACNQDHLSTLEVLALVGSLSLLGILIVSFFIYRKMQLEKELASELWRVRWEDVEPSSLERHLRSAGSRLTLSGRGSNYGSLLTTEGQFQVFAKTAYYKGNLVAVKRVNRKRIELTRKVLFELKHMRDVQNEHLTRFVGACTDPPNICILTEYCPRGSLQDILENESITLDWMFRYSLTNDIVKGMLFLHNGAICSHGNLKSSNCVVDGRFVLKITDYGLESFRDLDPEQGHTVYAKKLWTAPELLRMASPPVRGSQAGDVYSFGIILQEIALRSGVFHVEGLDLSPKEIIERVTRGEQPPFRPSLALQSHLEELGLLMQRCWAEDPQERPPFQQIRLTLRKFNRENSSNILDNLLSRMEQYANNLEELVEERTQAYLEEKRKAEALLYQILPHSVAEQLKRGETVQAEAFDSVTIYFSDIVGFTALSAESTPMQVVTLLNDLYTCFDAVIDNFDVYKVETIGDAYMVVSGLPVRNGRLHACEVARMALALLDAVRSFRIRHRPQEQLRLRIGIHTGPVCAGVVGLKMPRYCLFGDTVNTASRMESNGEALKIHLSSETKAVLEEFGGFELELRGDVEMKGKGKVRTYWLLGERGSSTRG
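Compound pre-incubated 30 min at room temperature on GloSensor-loaded HEK293 cells stably carrying hNpr1 and the pGS-40F cGMP biosensor. Stimulation uses hNppA at 0.1 nM final; luminescence is taken at baseline and 20 min post-agonist.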
The depositor's hits bear a star; ? = inconclusive; & = joins results of further samples; [ ] = dose if it differs, or a comment. % is scaled to controls: 0 for no effect and ±100 for the full control effect; potency is read from the fitted curve at half-maximal effect. The list is partial (hit frequency here may not be typical).

SMILES	hNpr1 antagonist
CC(C)N1CC2(C1)C(=O)N(Cc1ccccc1F)C(=O)[C@@H]1C[C@@H](O)CN12	-2%[70.6 µM]
Cc1cc(C[C@@H]2COC[C@@H]2NC(=O)Cn2ncc3ccccc32)on1	2%
COc1ccc(C(=O)N[C@H](c2cccs2)C2CC(O)C2)c(F)c1F (stereo partly specified)	4%
O=C(CC1COCCN1)N1CCC2(CCC(=O)N(CCc3ccncc3)C2)CC1 (stereo unspecified)	6%
O=C(Nc1cccc(F)c1)N1CCC(Oc2ccccc2-c2nc(-c3ccncc3)no2)C1 (stereo unspecified)	-1%
COc1ccc(-c2noc(-c3nnn4c3COC(c3ccc(C)cc3C)C4)n2)cc1OC (stereo unspecified)	-8%
CN1C(=O)C2(CCN([S+](=O)([O-])c3cccs3)C2)c2ccccc21 (stereo unspecified)	18%
O=C(Cc1ccccc1)N1CCC2(CC1)CC(N(Cc1ccc(F)cc1)C1CC1)CCO2 (stereo unspecified)	2%
CCCOc1cc(C)c2c(c1C)C[C@H](C(C)C(=O)N1CCOCC1)CC2 (stereo partly specified)	1%[70.6 µM]
O=C(c1cc2sccc2[nH]1)N1CC2CC(C1)[C@@H]1CCCC(=O)N1C2 (stereo partly specified)	1%
CCNC(=O)CN1C(=O)NC(CCc2ccccc2)(C2CCNCC2)C1=O (stereo unspecified)	1%
O=C(c1ccoc1)N1CCC2(CC1)NC(=O)N(c1ccccc1Cl)N2	0%
COc1cccc(CCNC(=O)c2c(C)noc2-c2ccco2)c1	-14%
CSc1ccc(CNC(=O)c2noc(-c3ccc(F)cc3)n2)cc1	-9%
O=S(=O)(c1ccccc1)N1CCC(c2nc(CCOCC3CC3)no2)C1 (stereo unspecified)	-1%
O=C(NCc1ccccn1)C1c2ccccc2C(=O)N(C2CCCC2)C12CCCCC2 (stereo unspecified)	-10%
CCc1ccccc1NC(=O)Cn1c(-c2ccc(F)cc2)nc(C)cc1=O	-1%
CC(C)c1ccc(C(=O)N[C@H](C2CCNCC2)C2CC(O)C2)c(=O)n1C (stereo partly specified)	0%
NC(=O)[C@H](CCC(=O)O)NC(=O)C1=C[C@@H](NC(=O)CC2(CC(=O)O)CCCC2)[C@@H](O)[C@H](O)C1	-2%
CN(C)c1cc(=O)c2ccnc(-c3cccc(CO)c3)c2o1	-3%[70.6 µM]
C#CCN(C)C(=O)c1onc(-c2ccc(Cl)cc2)c1[C@H](C)O	-17%[70.6 µM]
CCN1CCC(N2CCC(Oc3ccccc3-c3nc(-c4ccncc4)no3)C2)CC1 (stereo unspecified)	-2%
COc1ccc(NC(=O)C2Cn3cccc3C(=O)N2)c(OC)c1 (stereo unspecified)	5%
Cc1cccc(S(=O)(=O)N2CCc3c(C(=O)NC(C)C)cccc32)c1	-29%
Cc1cccc(CC(=O)N2CCCC(CN3CCCC3)CC2)c1 (stereo unspecified)	-8%
CC1(NC(=O)C2CC2)CN(Cc2nc(-c3cccc(N4CCOCC4)c3)cs2)C1	-2%[70.6 µM]
COCCN1C(=O)c2ccccc2C(C(=O)Nc2ccc3c(c2)OCCO3)C12CCCC2 (stereo unspecified)	4%
Cc1ccc(S(=O)(=O)N2CCC(Oc3ccc(C(N)=O)cn3)CC2)cc1	-19%
Cc1cnc(C(=O)NC2C[C@H]3CC[C@@H](C2)N3C(=O)c2sccc2C)cn1 (stereo partly specified)	2%
O=C(O)CCC(=O)N[C@H]1CCN2C(=O)c3cc(-c4ccc(F)cc4F)ccc3NC(=O)[C@H]12	5%
CCc1nc2c(c(-c3ccc(Cl)cc3)n1)CN(C(=O)Cc1cccc(Cl)c1)CC2	0%
COCCc1noc(-c2nc(-c3ccc(Cl)cc3)no2)n1	?
Cc1ccc(NC(=O)N2C[C@@H](Oc3cccnc3)C[C@H]2C(=O)N2CCCC2)cc1C	0%
CCCc1noc(-c2cccn3c(CNC(=O)c4cc(F)ccc4Cl)nnc23)n1	-1%
CC(C)CCNC(=O)Cn1nc2c(cc1=O)CCCC2	-7%
CCOc1ccccc1CNC(=O)c1ccc2c(c1)CC(=O)N2C	-5%
COc1cc(CN2CCc3nc(N(C)C)[nH]c(=O)c3CC2)cc(OC)c1OC	-1%
COc1ccc(Cn2c3c(c(=O)n2Cc2ccccc2)CCN(Cc2c(C)noc2C)C3)cc1	-1%
CN(Cc1ccon1)Cc1cc2n(n1)CCN(C(=O)c1ncoc1C1CC1)C2	-5%
Cc1cc(NC(=O)c2ccc(Cn3ccn4nc5c(c4c3=O)CCCC5)cc2)ccc1F	-21%
O=C(NC1CCCC1)N1CCCCCC1CN1CCOCC1 (stereo unspecified)	-2%
COc1ccc(CNC(=O)N2CCCOCCNC(=O)[C@@H]3CCCC[C@@H]32)cc1	0%
COCCC1(C(=O)O)CCN(c2ccnc3c(C(F)(F)F)cccc23)CC1	6%
COc1ccc(OC)c(S(=O)(=O)NCC2CNCCOC2)c1 (stereo unspecified)	7%
COCCN1CCC(N2CCN(S(=O)(=O)c3ccc(C)c(C)c3)CC2)C1=O (stereo unspecified)	1%
O=C(NCc1ccco1)C1CC(c2ccccc2)CN(C(=O)c2ccccc2F)C1 (stereo unspecified)	-14%
Cc1nccn1CC(=O)N1CCCn2cc(-c3cccc(C#N)c3)nc21	-12%
CNC(=O)[C@@H]1CN(C(=O)CCc2c[nH]c3ccccc23)C[C@H]1c1n[nH]c(C)n1	3%

Reprinted from above, 13 compounds:
SMILES	hNpr1 antagonist
CCOc1ccccc1CNC(=O)c1ccc2c(c1)CC(=O)N2C	-5%
COc1cc(CN2CCc3nc(N(C)C)[nH]c(=O)c3CC2)cc(OC)c1OC	-1%
COc1ccc(Cn2c3c(c(=O)n2Cc2ccccc2)CCN(Cc2c(C)noc2C)C3)cc1	-1%
CN(Cc1ccon1)Cc1cc2n(n1)CCN(C(=O)c1ncoc1C1CC1)C2	-5%
Cc1cc(NC(=O)c2ccc(Cn3ccn4nc5c(c4c3=O)CCCC5)cc2)ccc1F	-21%
O=C(NC1CCCC1)N1CCCCCC1CN1CCOCC1 (stereo unspecified)	-2%
COc1ccc(CNC(=O)N2CCCOCCNC(=O)[C@@H]3CCCC[C@@H]32)cc1	0%
COCCC1(C(=O)O)CCN(c2ccnc3c(C(F)(F)F)cccc23)CC1	6%
COc1ccc(OC)c(S(=O)(=O)NCC2CNCCOC2)c1 (stereo unspecified)	7%
COCCN1CCC(N2CCN(S(=O)(=O)c3ccc(C)c(C)c3)CC2)C1=O (stereo unspecified)	1%
O=C(NCc1ccco1)C1CC(c2ccccc2)CN(C(=O)c2ccccc2F)C1 (stereo unspecified)	-14%
Cc1nccn1CC(=O)N1CCCn2cc(-c3cccc(C#N)c3)nc21	-12%
CNC(=O)[C@@H]1CN(C(=O)CCc2c[nH]c3ccccc23)C[C@H]1c1n[nH]c(C)n1	3%

(listing goes on)
SMILES	hNpr1 antagonist
F[C@@H]1CN(Cc2ccnc3ccccc23)C[C@@H]1OCc1nc2ncccc2[nH]1	-2%[70.6 µM]
COCCN(CCOC)CC[C@@H]1CC[C@H](O)[C@@H](C(=O)Nc2ccccc2)O1	2%[70.6 µM]
Cc1ccccc1C(=O)NCc1ccnc2[nH]ccc12	-3%[70.6 µM]
CCOC(=O)c1cccc(NC(=O)N2CC[C@@H](CC(=O)Nc3nccs3)[C@@H](CC)C2)c1	?
CNCC(=O)N1CCC2(CC1)CN(CCOc1ccccc1)C(=O)O2	4%
O=C1CC2(CCN(Cc3ccc(C(F)(F)F)cc3)CC2)Oc2cc(Cl)ccc21	?
COc1ccccc1N1CCN(CC[C@@H]2CC[C@H](O)[C@@H](C(=O)NC3CC3)O2)CC1	1%[70.6 µM]
CS(=O)(=O)N(Cc1cccnc1)C1CN(C(=O)c2[nH]nc3c2CCc2ccccc2-3)C1	-13%
Cn1ccnc1C(=O)N1CCCN(S(C)(=O)=O)C(c2ccccc2)CC(=O)NCC1 (stereo unspecified)	-1%
Cc1ccc(CN2C(=O)NC3(CCCN(C(=O)c4ccccc4F)C3)C2=O)cc1 (stereo unspecified)	10%
Cc1nc(N2CCC(NC(=O)Cc3cccs3)CC2)cc(C(F)(F)F)n1	?
COc1ccc(Cc2nc3nccc(-c4ccc(OC)cc4)n3n2)cc1	5%
Fc1cccc(-c2noc(-c3nc(-c4ccncc4)no3)n2)c1	0%
Cc1noc(-c2ccc(OC3CN(C(=O)c4ccoc4)C3)cc2)n1	-2%
CCCNC(=O)Cc1csc2nc(C)c(-c3cc(C)n(-c4cc(Cl)ccc4C)n3)c(=O)n12	-9%
COc1ccc(C(=O)Nc2ccc(-c3noc([C@@H]4CCCN4Cc4ccco4)n3)cn2)cc1	13µM*
CC(C)CNC(=O)N1CCC2(CC1)N(Cc1cccc(F)c1)C(=O)CS2=O (stereo unspecified)	-5%
O=C(C1NCCc2[nH]cnc21)N1CCc2nnc(-c3ccccc3)n2CC1 (stereo unspecified)	0%
O=C(c1cnc2c(c1)N(C(=O)CCc1ccccc1)CCC2)N1CCC(c2ccccc2)CC1	5%
CC(=O)N1C[C@@H]2CCCN3CCC[C@@H]([C@H]23)[C@H]1CCCC(=O)NCCN1CCCCC1	5%
O=C(Cn1nc2c(cc1=O)CCCCC2)NC1CCCC1	-1%
COCc1noc([C@@H]2CC(F)(F)CN2C(=O)COc2ccccc2)n1	5%
CC(C)(C)NC(=O)N1CCC(OC2CCN(S(C)(=O)=O)CC2)CC1	0%
COc1ccc(CCC(=O)N2CCCC2c2nc(C3CCOCC3)no2)cc1 (stereo unspecified)	1%
C[C@]1(CO)[C@H]2Cc3sc(NC(=O)c4ccco4)nc3[C@@H](CC(=O)O)[C@]2(C)CC[C@H]1O	-1%[70.6 µM]
CNC(=O)[C@@H](C1CC1)N1CCC[C@H]1C(=O)NC(C)(C)C	4%[70.6 µM]
COc1ccc(OCc2nc(C)c(CCO)c(=O)n2CC(=O)Nc2ccc(C)cc2C)cc1	-3%
CCc1nc(NC(=O)C2c3ccccc3C(=O)N(CCOC)C23CCCC3)sc1C (stereo unspecified)	0%
COC(=O)C1CCN(C(=O)CC[C@H]2CNC(=O)[C@@H]3[C@@H](CCN3Cc3ccc(OC)cc3)N2C)CC1	0%
CC(=O)Nc1cccc(-c2ccc3c(n2)c(=O)ncn3Cc2ccccc2)c1	-7%[70.6 µM]
CCN(C1CCOCC1)C1CN(C(=O)C2CCCO2)C1 (stereo unspecified)	5%
C=CCNC(=O)N[C@H]1C[C@@H](C(=O)N[C@@H](Cc2ccc(OC)cc2)C(N)=O)N(C(=O)CC(C)(C)C)C1	-3%
O=C1CCCCCN1C1CCN(Cc2ccc(C(F)(F)F)cc2)CC1	-16%
OC[C@@H]1CN(C2CCCC2)C[C@H]1c1nc(-c2ccncc2)no1	-2%
CCN1c2cc(C(=O)Nc3ccc(OC)c(Cl)c3)ccc2C(=O)N2CCCC21 (stereo unspecified)	-2%
COCCNC(=O)C1CN(c2ccc(F)cc2)C(=O)N1 (stereo unspecified)	21%[70.6 µM]
COc1ccc(NC(=O)[C@@H]2C[C@@H](c3ccc(F)cc3)N(Cc3ccccc3)C2)cc1	-19%[70.6 µM]
COCCCn1c(C)cc(C(=O)N[C@@H]2CN(C)C[C@H]2CN(C)C)c1C	3%
COc1cccc(CNCC2(CO)C[C@@H](O)[C@@H](O)C2)c1 (stereo partly specified)	3%&-2%[70.6 µM]
COc1ncccc1C(=O)N1CCCC(c2[nH]ncc2Cc2ccccc2)C1 (stereo unspecified)	-2%
Cn1ncc(N2CCC(CNC(=O)c3cn4ccsc4n3)C2)cc1=O (stereo unspecified)	3%
Cc1ccccc1-c1nn(-c2ccc(F)cc2F)cc1CN1CCC[C@@H]1C(N)=O	2%
COC[C@H]1C[C@@H](NCc2ccc(OC(F)(F)F)cc2)[C@H](O)[C@@H]1O	-2%[70.6 µM]
CCCCc1ccc(NC(=O)Cn2ccn3nc(-c4ccccc4)c(CO)c3c2=O)cc1	2%
COC1CCC12CCN(C(=O)c1ccoc1)CC2 (stereo unspecified)	-3%
CSc1cccc(NC(=O)N[C@H]2CCN(C(=O)c3cccn3C)[C@@H]2C(=O)N[C@@H](Cc2cccs2)C(N)=O)c1	5%
CS(=O)(=O)c1ccc(-c2cnc([C@@H]3COCCN3Cc3cnc4ccccc4c3)[nH]2)cc1	5%
COC[C@H]1C[C@@H](NC(=O)c2cc(C)n(C)n2)[C@H](O)[C@@H]1O	3%[70.6 µM]
O=C(NCc1cccc(F)c1)c1cc2c(s1)CCN(C(=O)c1ccccc1)C2	-30%
CC1(C)N=C(c2ccccc2)C(=O)N1CC(=O)N1CCN(c2ccccc2)CC1	0%
COC(=O)[C@H](NC(=O)[C@@H]1[C@@H](NC(=O)Nc2cccc(OC)c2)CCN1C(=O)c1cccn1C)C(C)C	1%
O=C(Cc1c[nH]c2ncc(-c3ccccc3)cc12)NCCN1CCOCC1	3%[70.6 µM]
CN(C)[C@@H]1[C@@H](NC(=O)C2(S(=O)(=O)c3ccccc3)CC2)[C@H]2CCO[C@H]21	-11%
COCCNC(=O)C1COC2(CCN(C(=O)c3ccccc3Cl)CC2)N1C(=O)c1ccccc1C (stereo unspecified)	4%
Cc1nc(N2CCC(NC(=O)c3sccc3C)CC2)cc(C(F)(F)F)n1	?
CN(C)C[C@@H]1CN(C2CCOCC2)C[C@H]1NC(=O)c1ccc2cc[nH]c2c1	-1%

Compound activity: PubChem, National Center for Advancing Translational Sciences (NCATS)
